Six1-Eya2 inh – Six1/Eya2 interaction inhibition; AlphaScreen GST-Six1/His-Eya2 binding, biochemical; hits give low values; control for the full effect not named in the record; hit rate 0.56% among 360,000; Q15475+O00167; activity change, % (test concentration not listed); in the data active = activity change below about -65%; inconclusive = about -30% to -65%; inactive = above about -30%; also: % is scaled to controls: 0 for no effect and ±100 for the full control effect; compound concentration not given in the record
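AlphaScreen luminescence read after one hour at 37 °C in darkness. Pin-transferred compounds met GST-Six1 and His-Eya2 protein (5X stock 250 nM/500 nM) plus glutathione donor and Ni-chelate acceptor beads (5X, 50 ug/mL).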
CtBP-E1A inh – CtBP/E1A binding inhibition. AlphaScreen GST-E1A/His-CtBP binding, 1536-well; hits give low values; control for the full effect not named in the record. activity change, % (concentration not given with the values). hit rate 0.49% among 340,000. AID 651724; in the data active means activity change below about -65%; inconclusive means about -30% to -65%; inactive means above about -30%; also: % is scaled to controls: 0 for no effect and ±100 for the full control effect
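Homogeneous bead-based format: GST-tagged E1A captured on glutathione donor beads, His-tagged CtBP on nickel acceptor beads; compounds precede bead addition by 2 h at 37 °C.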
D2 agonist – activates the human D2 dopamine receptor; activation, % (no concentration beside the values); DiscoveRx PathHunter D2 beta-arrestin, luminescence, 90 min; 100% = 57 uM dopamine signal; hit rate 0.084% among 360,000; P14416; in the data active = activation above about 40%; inconclusive = about 15% to 40%; inactive = below about 15%; also: compound concentration not given in the record; the text of the record calls up to 30% inactive
Target sequence (P14416 whole entry, looked up): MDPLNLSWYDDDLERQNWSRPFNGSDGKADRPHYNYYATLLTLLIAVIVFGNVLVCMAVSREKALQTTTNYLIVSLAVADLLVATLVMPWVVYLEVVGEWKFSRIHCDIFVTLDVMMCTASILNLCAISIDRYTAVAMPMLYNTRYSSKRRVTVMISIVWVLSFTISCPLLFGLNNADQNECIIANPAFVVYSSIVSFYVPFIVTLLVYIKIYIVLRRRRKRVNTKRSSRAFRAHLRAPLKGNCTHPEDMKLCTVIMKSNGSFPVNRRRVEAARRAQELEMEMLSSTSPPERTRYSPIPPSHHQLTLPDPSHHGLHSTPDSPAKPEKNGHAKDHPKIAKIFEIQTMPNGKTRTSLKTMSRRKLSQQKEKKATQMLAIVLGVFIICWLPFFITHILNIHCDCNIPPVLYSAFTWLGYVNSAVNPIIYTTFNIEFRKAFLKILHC
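DiscoveRx PathHunter D2 beta-arrestin cells (2,100/well) attached overnight, then compound-stimulated 90 min at 37 C in HBSS/10 mM HEPES/0.1% Tween-20 buffer; beta-galactosidase complementation read by luminescence after 1 h at ambient temperature. Dopamine 57 uM final (EC100) as control.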
D2 potentiator – human D2 receptor positive allosteric modulation; AID 624464; DiscoveRx D2 beta-arrestin cells, luminescence, 90 min; 100% = 57 uM dopamine signal; P14416; hit rate 0.23% among 360,000; potentiation, % (concentration not given with the values); active = potentiation of 50% or more; inconclusive = 30% to 50%; inactive = 30% or less;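 also: compound concentration not given in the record; tested on top of an EC20 dose of dopamine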
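PathHunter D2 cells, attached overnight at 37 deg C, received compound in DMSO plus dopamine at EC20 (50 nM final) for 90 min at 37 deg C. Beta-arrestin recruitment was read as luminescence after 1 h with detection reagent at ambient temperature.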
PINK1 modulator – modulators of PINK1 expression; PINK1 immunofluorescence, high-content cytometry, 24 h; Potency, µM (titrated, usually from 76.6 µM), without a hit: at the top dose activation (PINK1 increase), usual class: activators; hit rate 0.2% among 410,000; active = well fitted activation curve with a large enough effect; inconclusive = small, poorly fitted or top-dose-only effect; inactive = flat fitted curve, though single readings scatter; cell line not stated here;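 also: potency is read from the fitted curve at half-maximal effect; % of control where 0% means no effect; nearly all actives have a fitted effect of over 65% in size; a mitochondrial uncoupler was the plate control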
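PINK1 protein level read as immunofluorescence by microplate cytometer in a fixed, stained stable cell line after 24 h exposure to five compound concentrations, with CCCP as control.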
TRPML1 agonist – human mucolipin-1 channel agonism. Q9GZU1. TRPML1-expressing cells, Ca2+ dye fluorescence, FDSS; host cell line not named in the record; reference of the full effect not given here. activation, % (test concentration not listed). hit rate 0.12% among 410,000. AID 624414; in the data active = activation above about 50%; inconclusive = about 30% to 50%; inactive = below about 30%; also: 0% is about no effect; the text of the record puts the active cut at 80%
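Kinetic FDSS Ca2+ read in Tet-induced TRPML1-DL cells (ABD Ca8 dye plus quencher, 45-90 min RT loading): baseline, then compound, then 110 s agonist window; EC80 agonist 54-4 at 4uM final added afterwards for a 110 s antagonist window.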
The depositor's hits bear a star; ? = inconclusive; / = no result given; [ ] = dose if it differs, or a comment.

Structure	D2 potentiator	D2 agonist	PINK1 modulator	Six1-Eya2 inh	TRPML1 agonist	CtBP-E1A inh
COC(=O)CCC(=O)OC1(C)C(=O)C=C2C=C(C3CC3)N(C3CC3)C=C2C1=O (stereo not drawn)	14	9.3	0.0%	2	-0.1	0
COc1cccc(OCC(=O)NC2CCCCC2)c1	0	-1.6	5.2%[38.3 µM]	3	-0.1	1
COc1ccc2nc(NC(=O)C3CCCN3S(=O)(=O)c3ccc(C)cc3)sc2c1 (stereo not drawn)	0	4.8	-1.7%	7	3.0	20
CSCCC(NS(=O)(=O)c1cc(C(=O)O)ccc1Cl)C(=O)O (stereo not drawn)	-26	-5.8	1.5%	9	0.5	/
COc1ccc(C2=Nn3c([n+](C)c4ccccc43)SC2)cc1	3	1.1	7.9%	-16	4.4	/
COCCCNC(=O)c1cccn2c(=O)c3cc4ccccc4cc3nc12	4	-2.0	-5.4%[38.3 µM]	?	3.6	-11
COc1cccc(NC(=O)c2nn(C34CC5CC(CC(C5)C3)C4)cc2[N+](=O)[O-])c1	-6	0.6	0.8%	-16	1.7	-14
Cc1cc(O)c(/C=N/OCc2ccc(Cl)cc2Cl)c(=O)o1	17	9.2	-1.2%	6	0.5	1
CCCCc1nnc(NC(=O)C=C(C)C)s1	-22	-4.0	1.2%	-1	-0.4	5
COc1ccccc1C(=O)NNC(=O)C(=O)N1CCCCC1	-17	-3.4	0.4%	-5	0.9	0
O=C(NCCc1ccc(Cl)cc1)C1CCN(S(=O)(=O)N2CCCC2)CC1	-5	0.5	-0.5%[38.3 µM]	-1	-0.1	-4
CCn1cc(C(=O)O)c(=O)c2cc(F)c(N3CCN(C(=O)Nc4ccccc4)CC3)cc21	3	-3.5	-1.8%[38.3 µM]	-7	0.1	4
Cc1cccc(NS(=O)(=O)c2ccc(C)c(C(=O)NCc3ccncc3)c2)c1	-2	-1.1	-2.4%	-7	-0.2	-4
CCOCC(=O)Nc1cc(C(=O)Nc2cccc(C)c2C)ccc1Cl	8	-1.3	/	-9	-0.3	-9
Cc1ccc(/C(O)=C/c2nc3ccccc3oc2=O)cc1	7	2.0	-0.9%	15	0.6	38
CC1CCCN1CC#CC(O)(c1ccccc1)c1ccccc1 (stereo not drawn)	-15	0.0	-1.0%	4	-0.4	5
COc1ccc(S(=O)(=O)Nc2cccc(-n3cnnn3)c2)cc1OC	-10	-4.5	1.3%	0	-0.9	5
CC(=O)c1ccc(NC(=S)N2CCCC2)cc1	-14	-3.8	-1.2%	4	0.8	0
Cc1ccc(Cc2c(C(C)(C)C)nc3ccc(Br)cn23)cc1	-8	-6.4	0.8%	0	0.3	1
CN(C)c1ccc(NC(=O)CSc2n[nH]c(-c3ccncc3)n2)cc1	-6	-3.6	0.5%	-8	-0.7	2
Cc1ccccc1NC(=S)NC1(C)CCS(=O)(=O)C1 (stereo not drawn)	-17	-0.4	-0.2%	5	0.4	7
O=C(CN(C(=O)CCC(=O)Nc1nccs1)c1ccc(F)cc1)NCc1ccc(F)cc1	-5	-4.1	2.0%	-7	-0.5	0
O=C(O)c1ccc(SCc2cnc(Cl)s2)cc1	3	-1.3	-1.2%	3	0.0	5
CCOc1ccc2oc(C(=O)OCC(=O)NC(=O)NC)c(C)c2c1	1	-3.5	12%	6	-0.2	3
O=c1oc2ccccc2c2nccnc12	-6	-0.7	8.8%[38.3 µM]	0	-0.3	-2
Cc1ccc(NC(=O)CNCc2ccccc2)c(Br)c1	-18	-4.2	7.4%	6	0.9	3
C[C@H]1CN([C@@H](C)CO)C(=O)Cc2cc(NC(=O)Cc3ccccc3)ccc2O[C@H]1CN(C)C(=O)Nc1cccc2ccccc12	0	1.1	0.1%	-3	-0.1	-10
Cn1cc(S(=O)(=O)NC2CCCCCC2)c(=O)n(C)c1=O	3	-3.7	1.9%	7	1.1	-9
COc1ccc(-n2nnnc2CNC(=O)c2ccc3ccccc3c2)cc1	-1	0.4	3.0%	2	0.5	-15
COC(=O)N1CC(C)N(C(=O)OC)CC1C (stereo not drawn)	0	-0.1	0.0%	1	-0.2	-3
Nc1nonc1-n1nnc(C(=O)N/N=C/C=C/c2ccccc2)c1CSC1=NCCS1	-10	-2.5	-0.9%	-23	-0.3	?
COc1ccc(NC(=O)C2(C)CCN2Cc2csc3ccccc23)cc1OC (stereo not drawn)	-4	1.9	-0.4%	-22	-1.0	-17
O=C(NC1CCCC1)c1ccc(S(=O)(=O)N2CCOCC2)cc1	-8	-0.5	-2.0%	2	2.3	-9
CCOc1ccc(Br)cc1C(=O)Nc1ccc(C(=O)NCC(C)C)cc1	-4	-5.3	3.0%	8	-0.4	0
Cc1nnc(NC2=NCCC2)o1	1	0.7	2.0%	-3	0.2	-2
CC(=O)N1CCc2cc(S(=O)(=O)N3CC(C)CC(C)C3)ccc21 (stereo not drawn)	-5	0.5	0.0%	3	-1.1	5
CC(=O)c1cc2c(cc1NS(=O)(=O)c1ccc(C)cc1)OCO2	-12	-1.7	7.5%[38.3 µM]	6	0.3	3
CCc1nc(-c2ccccc2O)n(-c2ccccc2)n1	5	0.1	-0.1%	7	0.1	10
O=C(Cn1c(C(=O)NCCCN2CCOCC2)cc2sccc21)c1ccccc1	-15	-3.2	9.2%[38.3 µM]	16	0.3	41
COc1ccc(CC(=O)NCc2ccc(Cl)cc2)cc1S(=O)(=O)N1CCOCC1	2	-0.3	-3.4%	2	0.9	1
Cc1ccc(NC(=O)CN2C(=O)S/C(=C\c3cccn3-c3cccc(C(=O)O)c3)C2=O)c(C)c1	-7	0.0	0.4%	-8	1.2	0
CN(Cc1ccccc1)C(=O)c1[nH]cnc1C(=O)Nc1ccon1	-6	-1.1	1.2%	-3	-0.1	4
O=C(Nc1ccc(-c2nc3cc(Cl)ccc3o2)cc1)C1CCCO1 (stereo not drawn)	-13	-0.5	?	9	-0.2	2
COc1cc(OC)nc(Oc2ccccc2C(=O)Oc2ccc(Cl)cc2)n1	-1	-1.3	3.0%	32	2.4	37
CC(NC(=O)c1cccnc1)C(=O)N1CCCCC1 (stereo not drawn)	21	-2.1	2.9%	-2	0.1	3
CCC(C)c1ccc(NC(=O)C2CC2)cc1 (stereo not drawn)	-2	-3.1	2.2%	1	-0.4	15
COc1ccccc1CNC(=O)c1cc(C(C)=O)c[nH]1	-12	-1.2	0.1%	-6	0.4	-1
COc1ccc(S(=O)(=O)Nc2nc3n(n2)C(c2ccc(Cl)cc2)CC(=O)N3)cc1 (stereo not drawn)	6	-3.0	-0.2%	8	-0.2	-1
CC(=O)c1cccc(OCc2cc(C(=O)N(C)CCc3ccccn3)no2)c1	1	0.1	-0.1%	-8	1.2	-16
O=C1CNC(=O)/C1=C\N1CCCCC1	-5	-2.4	1.7%[38.3 µM]	0	-0.3	4
Cc1ccc(S(=O)(=O)N2CCN(C(=O)CSc3ncc(C(F)(F)F)cc3Cl)CC2)cc1	-2	-3.9	-1.4%	-5	-1.5	2
CCOC(=O)Cc1cnc(NC(=O)Cn2nnc(-c3ccc(OCC)cc3)n2)s1	11	2.4	-1.9%	1	6.2	0
COc1cccc(NC(=S)NCCN2CCOCC2)c1	-14	-2.8	-0.5%	13	-0.1	15
Cc1ccc(-c2[nH]ncc2C(=O)c2ccc(Br)cc2)c(O)c1	3	-5.9	1.5%	0	1.4	-5
Cc1c(OCC(=O)N2CCC(C(=O)O)CC2)ccc2c3c(c(=O)oc12)CCCC3	-14	-2.0	0.3%	-10	/	-6
O=C(CSc1nc(-c2ccco2)cc(C(F)(F)F)n1)Nc1ccc(C(=O)N2CCCCC2)cc1	-11	-2.8	2.3%	-9	-1.0	-2
O=C(NOC(=O)c1ccccc1)c1ccccc1	5	12	5.2%	3	0.8	5
O=S1(=O)CCC(S(=O)(=O)N2CCCCCC2)C1 (stereo not drawn)	-19	-2.4	-1.4%	0	1.6	2
Cc1nn(-c2ccc(F)cc2)c(Cl)c1/C=C/C(=O)N1CCNC(=O)C1	-17	-4.4	0.6%	2	0.2	0
Cc1cc(F)ccc1NC(=O)c1ccc(NS(=O)(=O)c2cccs2)cc1	-8	-1.2	1.0%	-13	-0.6	27

(next part)
Structure	D2 potentiator	D2 agonist	PINK1 modulator	Six1-Eya2 inh	TRPML1 agonist	CtBP-E1A inh
Cc1cccc(N(CC(=O)N2CCCC2)S(C)(=O)=O)c1	11	4.4	0.1%	-28	/	/
COc1cccc(Nc2nc(=O)[nH]nc2C)c1	-3	-2.5	-0.4%	2	1.3	3
CC1=C(C(=O)N2CCCC(C(=O)c3cccc(C(F)(F)F)c3)C2)OCCO1 (stereo not drawn)	-4	5.4	0.5%	-3	0.5	/
CCCCN(C(=O)C(C)Oc1ccc(Cl)cc1)c1c(N)n(CCCC)c(=O)[nH]c1=O (stereo not drawn)	12	-0.4	-3.1%	7	0.0	-10
Cc1ccc(S(=O)(=O)N2CCCC(c3nc(-c4ccc(C)o4)no3)C2)cc1 (stereo not drawn)	-7	0.3	-0.7%[38.3 µM]	-12	2.0	11

Entries above that contain a COOH group (5):
Structure	D2 potentiator	D2 agonist	PINK1 modulator	Six1-Eya2 inh	TRPML1 agonist	CtBP-E1A inh
CSCCC(NS(=O)(=O)c1cc(C(=O)O)ccc1Cl)C(=O)O (stereo not drawn)	-26	-5.8	1.5%	9	0.5	/
CCn1cc(C(=O)O)c(=O)c2cc(F)c(N3CCN(C(=O)Nc4ccccc4)CC3)cc21	3	-3.5	-1.8%[38.3 µM]	-7	0.1	4
O=C(O)c1ccc(SCc2cnc(Cl)s2)cc1	3	-1.3	-1.2%	3	0.0	5
Cc1ccc(NC(=O)CN2C(=O)S/C(=C\c3cccn3-c3cccc(C(=O)O)c3)C2=O)c(C)c1	-7	0.0	0.4%	-8	1.2	0
Cc1c(OCC(=O)N2CCC(C(=O)O)CC2)ccc2c3c(c(=O)oc12)CCCC3	-14	-2.0	0.3%	-10	/	-6
